Mtb betalactam – beta-lactam sensitization of Mtb H37Rv. AID 434955. inhibition, % at 25 µM. 330,000 compounds, 0.27% hits. M. tuberculosis H37Rv growth with meropenem, percent inhibition; hits of this screen are not shown here;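 active = about 74% or more and at least 40 points above the plate without the antibiotic, then above 30% in a dose series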;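 note: growth measured after seven days incubation then overnight dye step; 0% = bacteria only wells and 100% = bacteria with antibiotic; twin plates without the antibiotic show which effects depend on it; some results filed as inactive read as strong as hits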
An asterisk follows results filed as active; & = joins results of further samples.

SMILES	Mtb betalactam
CC(=NNC(=O)CCC(=O)Nc1ccccc1Cl)c1ccco1	5
Cc1cc(=O)c(C(=O)Nc2cccc(C(=O)NC3CC3)c2)nn1-c1ccccc1Cl	3
COc1ccc(CCC(=O)N2CCN(c3cccc(C)c3C)CC2)cc1	9
C=C[C@H](CC(C)C)N(Cc1ccccc1)S(=O)(=O)N(Cc1ccccc1)[C@@H](C=C)CC(C)C	3
Cc1cc(C(=O)N/N=C/c2cccnc2)c2ccccc2n1	-10
CC1CC(C)CN(C(=O)C(C)N(C)CC(=O)Nc2ccc(F)cc2)C1 (stereo not drawn)	2
O=C(NCCC(=O)N1CCN(S(=O)(=O)c2ccc(F)cc2)CC1)Nc1ccccc1	4
O=C(CNC(=O)c1ccc(Br)o1)Nc1cccc(S(=O)(=O)N2CCCC2)c1	-4
Cc1cccc(C(=O)OCC(=O)Nc2c(C)n(C)n(-c3ccccc3)c2=O)c1O	-1
Cc1ccc(F)cc1NC(=O)CSc1n[nH]c(N)n1	-5
CCN1C(=O)[C@H]2[C@@H](c3ccc(-c4ccc(Cl)c(Cl)c4)c(OC)c3)N3CCCC[C@@]3(C(=O)OC)[C@H]2C1=O	-4
O=S(=O)(Nc1cccc(S(=O)(=O)N2CCCC2)c1)c1ccc(Cl)s1	-3
O=C(CN(C(=O)CCC(=O)Nc1nccs1)c1ccc2c(c1)OCO2)NCc1ccc(F)cc1	-8
CSc1nc2sc3c(c2c(=O)[nH]1)CC(C)(C)OC3	-7
CCOc1ccc(S(=O)(=O)N2CCN(C(=O)C3CSC4(C)CCC(=O)N34)CC2)cc1 (stereo not drawn)	-1
O=C(Nc1nccs1)c1nc[nH]c1C(=O)N1CCN(c2ccccc2)CC1	-11
CCN(CC)CCOC(=O)c1cc(Cl)c(N)cc1OC	-2
Cc1cc(OCC(=O)NCCc2c[nH]c3ccccc23)c2c(C)cc(=O)oc2c1	-5
Cc1ccc(S(=O)(=O)NCC(=O)NCC2COc3ccccc3O2)cc1C (stereo not drawn)	-6
O=C(Cn1cc(C(F)(F)F)cc(Cl)c1=O)NC1CCS(=O)(=O)C1 (stereo not drawn)	-4
CN(CC(=O)Nc1ccc(Cl)c(C(F)(F)F)c1)CC(=O)NC1CCCCC1	2
C=CCn1c(C)cc(C(=O)COC(=O)CCc2cc(OC)c(OC)c(OC)c2)c1C	-8
Cc1cc(C(=O)OCC(=O)Nc2cccc(S(N)(=O)=O)c2)c(C)o1	-2
Cc1cc(SCC(=O)N(CC(C)C)c2c(N)n(CC(C)C)c(=O)[nH]c2=O)nc2ccccc12	-7
Cc1ccc(S(=O)(=O)N2CC(=NN=C(N)N)C2)cc1	-3
Next section
SMILES	Mtb betalactam
CCCCn1c(=S)[nH]c2cc(S(=O)(=O)N3CCOCC3)ccc21	-6
CCN(C(=O)COC(=O)c1cc2c(s1)CCCC2)c1c(N)n(Cc2ccccc2)c(=O)[nH]c1=O	-1
CN(C)CCn1nnnc1SCC1=C(C(=O)O)N2C(=O)[C@@H](NC(=O)Cc3csc(N)n3)[C@H]2SC1	1
Cc1ccc(OCCNS(=O)(=O)c2ccc(Cl)cc2)cc1	8
O=C(COC(=O)Cc1ccc(Br)cc1)Nc1ccc(N2CCOCC2)cc1	-2
COc1ccccc1CC(=O)Nc1cc(S(=O)(=O)N2CCOCC2)ccc1N1CCOCC1	4
COc1ccc(Nc2nnc(SCC(=O)NC3CC3)s2)cc1	1
CCC(C)Sc1cccc(-c2nc3ccccn3c2NCc2ccccc2)c1 (stereo not drawn)	9
CCCCn1nc(C(=O)Nc2ccc3c(c2)OCCO3)c2ccccc2c1=O	8
Cc1ccc(NC(=O)CSc2nc3[nH]c(=O)cc(O)c3s2)c(Br)c1	-24
COc1ccc2c(c1)OC[C@H]1[C@H]2N2C(=O)c3cc(OC)c(OC)cc3NC(=O)[C@@]2(C)[C@H]1c1ccccc1	96
O=C(COC(=O)c1cccs1)NC1CCCC1	-21
CCc1ccccc1NC(=O)c1ccc(OCc2c(C)noc2C)cc1	-1
COC(=O)[C@@H](c1ccccc1)C1CCCCN1 (stereo partly drawn)	7
Cc1cccc(NC(=O)CSCC(=O)N2CCN(c3cccc(C(F)(F)F)c3)CC2)c1	-4
COc1ccc2c(ccn2S(=O)(=O)c2ccccc2)c1	3
CCn1nc(C(=O)NNC(=O)c2ccccc2)c2ccccc2c1=O	0
O=C(c1cc(Br)c(Br)s1)N1CCc2ccccc2C1	4
CCCCCCSc1ccc([C@@H]2[C@H]3C(=O)N(C)C(=O)[C@H]3[C@]3(C(=O)OC)CCCCN23)cc1OC	-11
COCCN(C(=O)c1cc(-c2ccco2)nc2ccccc12)c1c(N)n(Cc2ccccc2)c(=O)[nH]c1=O	0
O=C(CN1CCN(c2ccc(O)cc2)CC1)N(C1CC1)C1CCS(=O)(=O)C1 (stereo not drawn)	-10
Cc1noc(C)c1NC(=O)N(C)C[C@H]1Oc2ccc(NC(=O)Nc3ccc4c(c3)OCO4)cc2C(=O)N([C@H](C)CO)C[C@@H]1C	-12
COc1cc(C(=O)OCC(=O)c2ccccc2)cc2c1OCCO2	4
CN(CC(=O)Nc1ccc(Cl)cc1)C(=O)c1ccc(COc2ccccc2)cc1	-4
CCc1cccc2c(C(=O)CN3C(=O)N(C)C4(CCCCC4)C3=O)c[nH]c12	4
The list goes on.
SMILES	Mtb betalactam
C[C@H](CO)N1C[C@H](C)[C@@H](CN(C)S(=O)(=O)c2cn(C)cn2)Oc2c(NC(=O)Nc3ccc(C(F)(F)F)cc3)cccc2C1=O	7
COc1ccc(CN2C(=O)C(C)Nc3ncnc(N4CCN(c5ccccc5)CC4)c32)cc1 (stereo not drawn)	1
CC(C)(C)c1ccc(OCCCCCCN2CCNCC2)cc1	-7
Cn1ccc(NS(=O)(=O)c2cc(Br)ccc2Br)n1	0
CC1(C)O[C@@H]2[C@H](O1)[C@@H](COS(=O)(=O)O)O[C@H]2n1cnc2c(=O)[nH]cnc21	12
COc1ccc(CN2C(=O)c3ccccc3C2=O)cc1C(=O)N(C)CC(=O)Nc1c(C)cccc1C	-4
Cc1ccccc1NC(=O)c1ccc(OCc2c(C)noc2C)cc1	-7
CSc1ccccc1NC(=O)CN1CCN(S(=O)(=O)c2ccccc2[N+](=O)[O-])CC1	0
CCOc1ccc(OCCC(=O)Nc2ccc3c(c2)OCO3)cc1	-13
Cc1ccc(CNc2nc(-c3cccnc3)nc3ccccc23)cc1	70
Cc1c(C(=O)Nc2nc(-c3ccccn3)cs2)oc2ccccc12	72
Nc1nc(SCC(=O)Nc2cc(Cl)c(Cl)cc2Cl)n[nH]1	2
C[C@H]1CN([C@@H](C)CO)C(=O)c2cccc(NC(=O)c3cnccn3)c2O[C@@H]1CN(C)S(=O)(=O)c1ccc(F)cc1	4
CCCC(C)NC(=O)c1cc(S(=O)(=O)N2CCCCCC2)ccc1OC (stereo not drawn)	-4
CC(=O)c1ccccc1NC(=O)COC(=O)c1c(C)nn(-c2ccccc2)c1C	1
CC1(C)OC(C)(C)/C(=C\c2ccc(OCC(N)=O)cc2)C1=O	-1
CCOc1ccccc1NC(=O)COC(=O)Cc1ccsc1	-3
CC(C)CC(N(C)C)C1(c2ccc(Cl)cc2)CCC1 (stereo not drawn)	-5&-3
CC(C)Cn1nc(C(=O)Nc2cccc(C(=O)NC3CC3)c2)c2ccccc2c1=O	-3
O=C(COC(=O)c1cc2ccccc2oc1=O)Nc1cccc(Br)c1	6
CCNC(=O)NC(=O)CSc1ccc(S(=O)(=O)N(C)C2CCCCC2)cn1	1
COc1ccc(OC)c(-c2csc(NC(=O)CSCC(=O)Nc3cc(C)on3)n2)c1	-3
Cc1ccc(C)c(OCCC(=O)N2CCN(S(=O)(=O)c3ccc([N+](=O)[O-])cc3)CC2)c1	-5
CN(Cc1ccccc1Br)C(=O)CN1C(=O)NC2(CCCCCC2)C1=O	-6
COc1ccc(CN(C)C(=O)c2cc(S(=O)(=O)NCc3ccccc3)ccc2C)c(OC)c1	2
(listing goes on)
SMILES	Mtb betalactam
O=C(NC(=S)Nc1ccccc1Br)C1CCCCC1	3
Cc1ccccc1NC(=O)COC(=O)c1ccccc1SCC(=O)N1CCCC1	-9
COc1ccc(-c2cc(=O)[nH]c3ccccc23)cc1	3
CCCn1c(N)c(C(=O)CSc2nnc3n2CCCCC3)c(=O)[nH]c1=O	0
COc1ccc(NC(=O)C2CCC(C(C)(C)C)CC2)cc1S(=O)(=O)N1CCOCC1 (stereo not drawn)	-6
O=C(c1cc(COc2ccc(F)cc2Cl)on1)N1C[C@H]2CC[C@H]1C2	-3
O=C(Nc1cccc(NC(=O)c2ccco2)n1)c1ccco1	-2
O=C(CSc1nnnn1C1CC1)Nc1cccc(S(=O)(=O)N2CCCC2)c1	-3
COc1ccc(C2=Nn3c(nnc3-c3ccccc3F)SC2)cc1OCC1CC1	31
COc1ccccc1NC(=O)C/C(N)=N/OCC(=O)Nc1cccc(Cl)c1	-9
COc1ccc([C@H]2CC(=O)C=C(c3cccc(OCc4ccccc4)c3)C2)cc1	55
NC(=O)NC(=O)C(c1ccccc1)N1CCN(S(=O)(=O)c2ccc(Br)s2)CC1 (stereo not drawn)	-3
Cc1ccc(S(=O)(=O)N2CCOCC2)cc1NC(=O)COC(=O)Cc1ccc(Cl)cc1	-3
O=C(NCC1CCCO1)c1cc2c(s1)CCCC2 (stereo not drawn)	11
CSCCC(NC(=O)c1ccccc1)C(=O)N1CCCCCCC1 (stereo not drawn)	-2
CCOc1ccc(S(=O)(=O)N(CC)CC(=O)NC2CCS(=O)(=O)C2)cc1 (stereo not drawn)	4
CCC(C)(C)C1CCC2(CC1)NC(=O)N(CC(=O)N1CCN(C(=O)c3ccco3)CC1)C2=O (stereo not drawn)	-4
O=C(Cc1cccs1)Nc1ccc(F)c(S(=O)(=O)N2CCOCC2)c1	0
COC(=O)c1ccccc1S(=O)(=O)N1CCC(C(=O)NC2CCCCC2C)CC1 (stereo not drawn)	-3
COc1ccc(NC(=O)CN(C)C(=O)CSc2ccc(Br)cc2)cc1	-13
Cc1cccc(C(=O)NNC(=O)c2n[nH]c(=O)c3ccccc23)c1C	-12
COc1cccc2sc3cc(NCc4ccc(C)o4)ccc3c(=O)c12	39
COc1ccccc1CNC(=O)c1ccncc1	-4
COc1ccc(COC(=O)C2CC(=O)N(Cc3ccccc3)C2)cc1 (stereo not drawn)	6
CC1CCCC(NC(=O)CSc2cccc[n+]2[O-])C1C (stereo not drawn)	0

Next part; the last 5 above are carried over.
SMILES	Mtb betalactam
Cc1cccc(C(=O)NNC(=O)c2n[nH]c(=O)c3ccccc23)c1C	-12
COc1cccc2sc3cc(NCc4ccc(C)o4)ccc3c(=O)c12	39
COc1ccccc1CNC(=O)c1ccncc1	-4
COc1ccc(COC(=O)C2CC(=O)N(Cc3ccccc3)C2)cc1 (stereo not drawn)	6
CC1CCCC(NC(=O)CSc2cccc[n+]2[O-])C1C (stereo not drawn)	0
CCN(C(=O)COC(=O)CCC(=O)c1ccccc1)c1c(N)n(Cc2ccccc2)c(=O)[nH]c1=O	2
C=CC[C@H](CC(=O)NCCO)C(=O)N[C@@H](C)COC(=O)[C@H](CC=C)CC(=O)OC(C)(C)C	3
CCN(C[C@H]1N[C@@](C)(C(=O)OC)[C@H]2C(=O)N(C)C(=O)[C@@H]12)S(=O)(=O)c1ccccc1	-3
O=C(c1ccccc1[N+](=O)[O-])N1CCC2(CC1)OCCO2	-6
CCOC(=O)c1[nH]cnc1C(=O)N[C@@H](C)c1ccccc1	3
Cc1ccc(S(=O)(=O)N2[C@@H](c3ccc4c(c3)OCO4)C(C(=O)O)=C[C@H]2C(C)(C)C)cc1	4
CN(CC(=O)Nc1ccc(F)c(F)c1F)C(=O)c1ccc(N2CCCC2=O)cc1	-2
COc1ccc(S(=O)(=O)N2CCCCC2)cc1NC(=O)C1CC(=O)N(Cc2ccccc2)C1 (stereo not drawn)	-6
CC(=O)c1ccc(OC(C)C(=O)Nc2cccc(S(=O)(=O)NCc3ccco3)c2)cc1 (stereo not drawn)	0
Cc1ccc(C)c(OCCC(=O)OCC(=O)NNC(=O)c2ccccc2)c1	10
COc1ccc(C(=O)Nc2ccc(NC(C)=O)cc2)cc1S(=O)(=O)N1CCCCC1C (stereo not drawn)	2
CCn1c(C)nc2cc(C(=O)NN=Cc3ccccc3OC(F)F)ccc21	0
Cc1ccccc1Cn1cc(S(=O)(=O)c2ccc(C(C)C)cc2)c(=O)c2cc3c(cc21)OCO3	-6
C[C@H]1COC(=O)[C@H](Cc2ccc(F)cc2)C/C=C\C[C@@H](CC(=O)N(CCO)Cc2ccccc2)C(=O)N1	-6
COC(=O)C1=C(c2ccc(S(C)(=O)=O)cc2)C[C@@H]2CC[C@H]1N2C	-6
CCN(CC(=O)NCc1cccs1)C(=O)c1ccc(S(=O)(=O)Nc2ccccc2Cl)cc1	4
Cc1cc(F)ccc1S(=O)(=O)Nc1ccc(C(=O)N2CCCCC2)cc1	3
Cc1ccc(NC(=S)N2CCC(NC(=O)c3ccc(C)cc3)CC2)cc1	-7
CCN(C(=O)CSc1ncccn1)c1cccc2ccccc12	0
COc1ccccc1CN(C)C(=O)c1cccc(S(=O)(=O)N2CCCc3ccccc32)c1	-5
CC(Oc1ccc(Br)cc1)C(=O)NCC1(N2CCCCC2)CCCCC1 (stereo not drawn)	-2

Part of the list above, as a markdown table.
| structure | Mtb betalactam |
| --- | --- |
| Cc1cc(F)ccc1S(=O)(=O)Nc1ccc(C(=O)N2CCCCC2)cc1 | 3 |
| COC(=O)C1=C(c2ccc(S(C)(=O)=O)cc2)C[C@@H]2CC[C@H]1N2C | -6 |
| CCn1c(C)nc2cc(C(=O)NN=Cc3ccccc3OC(F)F)ccc21 | 0 |
| COc1ccccc1CN(C)C(=O)c1cccc(S(=O)(=O)N2CCCc3ccccc32)c1 | -5 |
| O=C(c1ccccc1[N+](=O)[O-])N1CCC2(CC1)OCCO2 | -6 |
| CCN(C(=O)COC(=O)CCC(=O)c1ccccc1)c1c(N)n(Cc2ccccc2)c(=O)[nH]c1=O | 2 |
| Cc1ccccc1Cn1cc(S(=O)(=O)c2ccc(C(C)C)cc2)c(=O)c2cc3c(cc21)OCO3 | -6 |

Compound activity from PubChem.

Some of the compounds tested; count on the stated rates, not on these rows.
